# T cruzi inh = T. cruzi replication inhibition; T. cruzi beta-gal in NIH3T3, luminescence, 90 h; inhibition, % (no concentration beside the values); 1.4% of 300,000 active; AID 1885;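 active = mean inhibition across valid replicates above about 55%, limit read from the data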;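 also: signal also drops with host cell toxicity which is not excluded here; 0% = plate median of DMSO wells and 100% = zero luminescence signal; higher percent means less beta-gal luminescence so fewer parasites; stock transfer was 50 nL into about 50 µL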
# UCH37 inh = blocks the human deubiquitinase UCH37; 0.33% of 330,000 active; AID 588478; inhibition, % (concentration not given with the values); purified proteasome/UCH37, Ub-AMC cleavage fluorescence;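 active = mean of two replicates above 20%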;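 also: 0% = compound-free wells with enzyme and 100% = wells lacking proteasome; stock transfer was 100 nL into about 20 µL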
# Target sequence (Q9Y5K5 whole entry, looked up): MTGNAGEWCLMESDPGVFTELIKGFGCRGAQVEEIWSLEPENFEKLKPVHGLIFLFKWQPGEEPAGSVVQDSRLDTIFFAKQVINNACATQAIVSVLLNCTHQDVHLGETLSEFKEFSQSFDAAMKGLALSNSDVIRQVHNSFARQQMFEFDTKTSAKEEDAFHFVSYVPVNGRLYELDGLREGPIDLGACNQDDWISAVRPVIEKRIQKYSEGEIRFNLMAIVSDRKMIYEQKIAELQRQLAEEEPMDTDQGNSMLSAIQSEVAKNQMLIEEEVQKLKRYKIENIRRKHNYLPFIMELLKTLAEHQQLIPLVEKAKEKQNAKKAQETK
#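 Reagent: Ub-AMC substrate; assay system: Proteasome-associated human UCH37 deubiquitinase; controls: no-proteasome and no-compound wells; read-out: % inhibition of Ub-AMC cleavage fluorescence; timing: 30 min preincubation with enzyme, 25 min cleavage at room temperature; signal: AMC fluorescence from Ub-AMC cleavage, excitation 355 nm, emission 460 nm; buffer or medium: Tris-HCl pH 7.4 plus ovalbumin, ATP-MgCl2, DTT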
# Ecoli rRNA inh = selective bacterial rRNA inhibition in E. coli; E. coli WT GFP vs humanized-ribosome RFP mutants, fluorescence, 24 h; stronger effect = lower value; DMSO median 0, no signal -100; GFP signal change (wild-type ribosome), % (concentration not given with the values); 1.6% of 350,000 active;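 active = significant combined selectivity score with lowered wild-type GFP, culture density cut under 30%, mutant RFP and density less affected; inactive = any of these conditions unmet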; also: one replicate is shown; some compounds called inactive have numbers as strong as hits
# A1 inh = inhibitors of the anti-apoptotic protein A1, read as caspase activation; MEF A1-2A-BIM cells, Caspase-Glo 3/7 luminescence, 3 h; percent of clofoctol response, vehicle zero; caspase activation, % (test concentration not listed); 0.066% of 330,000 active; AID 2462;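 active = over half of replicate activation scores above 10%, or exactly half above 10 with the replicate mean above 10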;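 also: wells of about 30 µL received 50 nL stock; many hits fall short of the cut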
# Ecoli growth = blocks Escherichia coli growth; OD600, 23 h; stronger effect = lower value; OD600 absorbance (test concentration not listed); 0.21% of 330,000 active; AID 1053175;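 active = OD600 absorbance below the run mean of sample wells minus 3.6 SD, in any replicate, cut at about 0.56 in these data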;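 also: stock transfer was 300 nL into about 60 µL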
# Beta apoptosis = beta cell apoptosis inhibition; INS-1E cytokine-induced death, ATP luminescence, 48 h; percent of positive-control rescue, neutral wells zero; protection from apoptosis, % (concentration not given with the values); 0.8% of 300,000 active; AID 435005;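 active = all replicates at 75% or more, or half of them and the mean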;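 also: 0% = cytokine-treated negative control wells and 100% = positive control rescue; higher means more ATP so stronger rescue from cytokine killing; wells of about 40 µL received 100 nL stock; the first replicate is given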
# AF4-AF9 inh = MLL-AF4/AF9 protein interaction inhibition | P42568 | AlphaScreen, biotin-AF4 peptide binding to FLAG-AF9 | inhibition, % at 10 µM | 0.47% of 350,000 active | AID 651704;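 active = every replicate reaching a set inhibition limit, whatever the replicate mean, cut at about 25% in these data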;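 also: 0% = plate neutral control median and 100% = total signal loss; the record names both 10 and 1 µM as test concentration; the first replicate is given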
# Target sequence (P42568 whole entry, looked up): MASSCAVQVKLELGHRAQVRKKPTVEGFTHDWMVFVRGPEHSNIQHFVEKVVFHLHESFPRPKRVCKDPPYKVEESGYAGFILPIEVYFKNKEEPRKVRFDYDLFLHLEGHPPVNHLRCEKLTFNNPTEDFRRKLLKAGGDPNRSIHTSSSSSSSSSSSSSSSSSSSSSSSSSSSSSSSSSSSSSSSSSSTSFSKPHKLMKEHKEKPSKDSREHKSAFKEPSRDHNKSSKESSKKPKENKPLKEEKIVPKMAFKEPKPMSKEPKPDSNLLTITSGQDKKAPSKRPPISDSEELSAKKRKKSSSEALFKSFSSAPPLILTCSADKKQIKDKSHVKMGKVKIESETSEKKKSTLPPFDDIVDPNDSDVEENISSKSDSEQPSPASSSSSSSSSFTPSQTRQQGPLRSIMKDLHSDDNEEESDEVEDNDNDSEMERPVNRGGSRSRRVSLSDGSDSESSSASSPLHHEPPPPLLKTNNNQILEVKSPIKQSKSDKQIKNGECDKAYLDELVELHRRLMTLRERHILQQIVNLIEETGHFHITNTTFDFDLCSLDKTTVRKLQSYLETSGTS
# FGF22 binding = shifts melting point of recombinant human FGF22. calls only at 9.99 µM. recombinant FGF22 thermal shift, SYPRO orange fluorescence; percent of sucrose octasulfate shift, DMSO zero. 1.5% of 340,000 active. Q9HCT0;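 active = melting point raised past a set limit in the mean and every replicate; three in four hits are not shown here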
# Target sequence (Q9HCT0 whole entry, looked up): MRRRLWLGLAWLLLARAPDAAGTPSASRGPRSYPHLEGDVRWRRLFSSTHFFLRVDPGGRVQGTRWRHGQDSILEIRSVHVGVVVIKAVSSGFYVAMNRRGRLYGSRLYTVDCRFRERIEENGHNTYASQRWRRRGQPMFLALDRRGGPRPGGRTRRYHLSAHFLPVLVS
# Ecoli rRNA inh OD600 = further read-out of Ecoli rRNA inh, marked with its call; OD600 change, %; measured here: OD600 growth;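 optical density of the mix in the first replicate; 0 = DMSO median and -100 = no signal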
# Ecoli rRNA inh RFP = also measured in Ecoli rRNA inh; calls as there; RFP signal change, %; measured here: RFP humanized mutant strains;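 first replicate; 0 = DMSO median and -100 = no signal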
# * = called active by the depositor; i = inactive; x = not tested or not shown; & = joins results of further samples.
SMILES,T cruzi inh,UCH37 inh,Ecoli rRNA inh,Ecoli rRNA inh OD600,Ecoli rRNA inh RFP,A1 inh,Ecoli growth,Beta apoptosis,AF4-AF9 inh,FGF22 binding
COCCCN1C(=O)C(=O)/C(=C(/O)c2ccc(S(=O)(=O)N3CCOCC3)cc2)C1c1cccc(Cl)c1 (stereo not given),-6,13,0,8,-3.8,0.0,0.68,x,-1.4,i
CC(C)C(C)NC(=O)COC(=O)c1cccc(C(=O)OCC(=O)NC(C)C(C)C)n1 (stereo not given),-3,-0.1,6,-14,-1.5,0.7,0.62,-4,-2.7,i
O=C(CC1N=C2c3ccccc3N=C(SCc3ccc(Cl)cc3)N2C1=O)NCc1ccco1 (stereo not given),x,-20,x,x,x,-0.9,0.68,-1,x,x
Cc1cc(N2CCN(C)CC2)nc2ccc(NC(=O)CCC(=O)NCCCOC(C)C)cc12,0,-142,5,15,6.8,0.2,0.66,-4,0.2,i
O=C1Nc2ccccc2O/C1=C\c1ccccc1,2,-114,11,6,-1.2,-0.7,0.72,-12,2.9,i
C=C(C)CSc1nnc(-c2cccc(S(=O)(=O)N(C)C)c2)n1-c1cc(OC)ccc1OC,24,2.8,x,x,x,0.9,0.73,-4,x,x
CN1CCN(S(=O)(=O)c2ccc(-c3noc(C4CCN(S(C)(=O)=O)CC4)n3)cc2)CC1,8,1.1,x,x,x,0.4,0.66,-5,x,x
COc1ccc(S(=O)(=O)N(C)CC(=O)NCCC2=CCCCC2)cc1OC,-9,11,x,x,x,0.5,0.65,-10,x,x
Cc1ccsc1C(=O)N1CCCC(CO)(Cc2ccccc2)C1 (stereo not given),11,3.4,-16,-20,-3.2,1.7,0.73,2,-1.5,i
Cc1cc(Br)ccc1NC(=O)CN(C)C(=O)c1cc([N+](=O)[O-])ccc1N1CCOCC1,9,8.6,-6,-6,0.3,0.1,0.6,x,-10,i
CCC1(C(N)=O)CC2C=CC1C2 (stereo not given),x,-1.5,4,4,-1.3,x,0.67,x,-0.2,i
C=C(C)COc1ccc(-c2n[nH]c(C)c2-c2ccc(OC)c(OC)c2)c(O)c1,20,4.4,1,-4,-6.8,0.3,0.69,21,0.4,i
N#C/C(=C/c1ccc(CNS(=O)(=O)c2ccccc2)o1)C(=O)NCc1ccccc1,-2,9.5,1,12,2.1,0.7,0.69,-9,5.0,i
COc1cc(C(CCN2CCCC(C)C2)c2c(OC)cc(OC)c3c2OC(=O)CC3c2ccc(N(C)C)cc2)cc(OC)c1OC (stereo not given),11,-1.4,x,x,x,0.3,x,2,x,x
Cc1[nH]c2ccccc2c1C(=O)C(=O)Nc1ccc2c(c1)OCO2,5,3.5,-9,-9,1.5,-1.4,0.67,2,6.3,i
Cc1ccc(C(=O)OCC(=O)c2ccc(CC(=O)N3CCOCC3)s2)cc1C,x,4.2,3,1,1.9,0.6,0.68,-2,2.5,i
Cc1ccc(C2C(C#N)=C(N)N(N(C)C)C3=C2C(=O)CCC3)cc1 (stereo not given),-27,4.8,x,x,x,2.1,0.71,2,x,x
COc1ccc(N2CC(C(=O)Nc3cccc(OC(C)C)c3)CC2=O)cc1 (stereo not given),-7,3.9,0,-5,1.1,0.2,0.69,x,-8.9,i
CC(Oc1ccc(Cl)cc1Cl)C(=O)Nc1ccc2oc(-c3ccncc3)nc2c1 (stereo not given),53,-65,x,x,x,0.1,0.73,4,x,x
N#C/C(=C1\CCCN1)c1nc2ccccc2c(=O)[nH]1,-25,-0.5,x,x,x,0.1,x,7,x,x
CC1CC(C)CN(S(=O)(=O)CCNC(=O)c2ccccc2)C1 (stereo not given),-8,x,2,6,-3.2,-0.2,x,2,-0.1,i
COc1ccc(NS(=O)(=O)c2cccc(C(=O)NNC(=O)c3ccc(=O)[nH]c3)c2)cc1,x,1.1,3,10,0.7,0.4,0.72,-7,-3.4,i
O=C(Cn1cnc2c(nnn2-c2ccc(F)cc2)c1=O)N1CCCC1,-9,-0.5,x,x,x,0.1,0.68,-3,x,x
COc1ccc(NC(=O)C2=CCN(S(=O)(=O)c3ccccc3)CC2)cc1OC,3,3.9,-8,0,-0.1,0.4,0.68,-1,3.3,i
COc1ccc(C2CC(c3ccccc3)n3nc(NC(=O)c4cccs4)nc3N2)cc1 (stereo not given),11,-11,x,x,x,0.2,0.77,0,x,x
CC(Sc1nnc(N)s1)C(=O)NCc1ccc2c(c1)OCO2 (stereo not given),x,-2.3,6,7,-1.9,-0.8,0.69,0,-3.1,i
Cc1ccc(NC(=O)C2CCN(S(=O)(=O)c3ccc4c(c3)NC(=O)C(C)S4)CC2)c(Cl)c1 (stereo not given),20,4.7,-26,-23,8.1,0.1,0.7,11,-8.4,x
Cc1ccc(C)c(S(=O)(=O)N2CCN(C(=O)CSC(=S)N3CCCC3)CC2)c1,8,5.1,-3,-10,1.4,-0.2,0.63,0,-3.8,i
CCOc1ccc(S(=O)(=O)N2CCOCC2)c2ccccc12,8,-4.5,-18,-14,-0.4,-0.1,0.68,1,-8.5,i
COc1ccc(NC(=O)C2C3C=CC4(O3)C2C(=O)N(CCCN2CCCC(C)C2)C4C(=O)NC2CCCCC2)cc1 (stereo not given),-3,2.5,4,9,-2.6,0.1,0.7,-4,3.6,i
COc1ccccc1C(=O)NCCC(=O)Nc1ccc(C)cn1,-14,-0.5,13,7,0.9,-0.9,0.65,-8,-2.1,i
Cc1nc(CC(=O)NNS(=O)(=O)c2cccc(Cl)c2Cl)cs1,x,0.5,3,9,-3.4,0.8,0.68,-4,-2.1,i
Cc1ccc(NS(=O)(=O)c2ccc(Cl)s2)nc1,2,-5.1,2,-1,0.6,0.3,0.69,2,-2.8,i
Cc1ccc(S(=O)(=O)N(C)C)cc1NC(=O)COC(=O)Cc1cccs1,-4,-25,19,10,2.6,0.3,0.69,-2,-2.2,i
COc1cc(NC(=O)Cn2ncc3c2-c2ccccc2OC3)cc(OC)c1OC,-3,2.6,3,-15,-0.9,-0.4,0.76,-4,1.7,i
Cc1ccn2c(=O)nc(SCC(=O)Nc3ccc4c(c3)OCCO4)nc2c1,-7,3.6,-3,2,1.7,0.1,0.69,x,6.9,i
Cc1nn2c(-c3ccccc3)ccnc2c1-c1ccccc1,13,1.9,x,x,x,0.0,0.68,2,x,x
CCOC(=O)C1=C(COC(=O)C(CC)Oc2ccccc2)NC(=O)NC1C (stereo not given),-8,3.1,6,8,1.8,0.2,0.69,1,-5.4,i
O=C(COC(=O)c1cc([N+](=O)[O-])ccc1NCCO)c1ccc(Cl)cc1,-11,6.9,5,-7,0.5,-0.8,0.68,-7,3.0,i
O=C(CN(Cc1ccccc1)S(=O)(=O)c1ccc(Br)cc1)NCc1ccco1,38,1.9,x,x,x,0.7,0.68,12,x,x
CCN(CC)S(=O)(=O)c1cccc(C(=O)NC(C(=O)Nc2nnc(C3CC3)s2)C(C)C)c1 (stereo not given),19,0.9,x,x,x,0.2,0.64,-3,x,x
COc1ccc(C(=O)NCCc2ccc(C)cc2)cc1OC1CCN(C(C)=O)CC1,4,-0.1,-1,-3,1.4,0.7,0.69,2,1.0,i
CC1CCCC(NC(=O)C2N(CCCN3CCCC3)C(=O)C3C(C(=O)Nc4ccc(Cl)cc4)C4C=CC32O4)C1C (stereo not given),27,5.2,1,3,-0.3,0.4,0.66,0,0.4,i
O=S(=O)(NCCN1CCOCC1)c1ccc(-c2ccc(S(=O)(=O)NCCN3CCOCC3)cc2)cc1,10,2.5,0,4,2.8,-0.5,0.67,0,-2.1,i
CC1=CC(=O)N(c2ccn(C)n2)C1=O,-1,4.0,5,14,-1.2,-0.2,0.69,-10,1.2,i
CCOC(=O)C(=O)NNc1cccc(C)c1C,12,2.3,x,x,x,0.7,0.7,-10,-1.5,i
COc1ccc(NC(=O)Nc2ccc3c(c2)C(=O)N([C@@H](C)CO)C[C@@H](C)[C@@H](CN(C)S(=O)(=O)c2cn(C)cn2)O3)cc1,x,0.5,3&2,2&8,-1.2&3.1,x,0.7,x,-0.6&-0.1,i
CN(CCO)C1=CC(=O)CC(C)(C)C1,-8,2.1,x,x,x,1.7,0.69,-8,x,x
COC(=O)c1[nH]cnc1C(=O)c1ccccc1,-4,-0.3,x,x,x,0.9,0.7,4,x,x
Cc1ccc(-c2ccccc2NC(=O)CCl)o1,21,1.0,x,x,x,-0.1,0.75,x,x,x
CC(C)(C)c1ccc(OCC(=O)NCCN2CCCC2)cc1,31,2.6,x,x,x,0.0,0.72,-7,x,x
CCn1c(C)c(C(=O)c2ccccc2)c(C#N)c1C(=O)O,-3,1.4,-10,-7,-0.5,0.4,0.69,2,1.2,i
CC(C)(C)c1nc(SCC(=O)Nc2nc3c(s2)CCCC3)c2ccccc2n1,59*,2.6,x,x,x,0.6,0.7,24,x,x
O=C(Nc1ccn(C2CC(OC(=O)c3ccccc3)C(CO)O2)c(=O)n1)c1ccccc1 (stereo not given),6,0.0,x,x,x,0.4,0.78,2,x,x
CC(NC(=O)c1ccc(CS(=O)(=O)c2cccc(C(F)(F)F)c2)o1)c1ccc2c(c1)OCCO2 (stereo not given),11,-1.6,x,x,x,0.6,0.7,0,x,x
CCCOC(=O)c1ccc(NC(=O)CSC2=Nc3ccccc3C3CC=NN23)cc1 (stereo not given),16,6.5,0,1,2.4,0.8,0.72,-10,x,x
O=C(COC(=O)CNC(=O)c1ccccc1)Nc1nnc(-c2ccccc2)o1,-14,0.0,9,4,0.3,1.2,0.66,3,0.2,i
N#CC1=C(N)N(c2ccccc2C#N)C2=C(C(=O)CCC2)C1c1ccsc1 (stereo not given),-2,4.3,x,x,x,-0.4,0.62,2,x,x
O=C(O)c1ccc(NCc2ccncc2)cc1,-5,-0.8,x,x,x,0.8,0.64,-5,x,x
Cc1cccc(NC2=NCC(=O)N2Cc2cccs2)c1,-3,3.2,10,10,-1.1,0.4,0.69,-3,1.8,i
# The listing continues:
SMILES,T cruzi inh,UCH37 inh,Ecoli rRNA inh,Ecoli rRNA inh OD600,Ecoli rRNA inh RFP,A1 inh,Ecoli growth,Beta apoptosis,AF4-AF9 inh,FGF22 binding
Cc1ccn2c(=O)c(C(=O)O)cnc2c1,-14,-306,x,x,x,0.8,0.71,-6,-5.0,i
CC(/C=N/NC(=O)c1cccs1)=C\c1ccco1,-18,x,13,12,-2.0,-5.0,x,3,6.9,i
CN(c1ccccc1)S(=O)(=O)c1cccc(NC(=O)CN2C(=O)NC3(CCCC3)C2=O)c1,x,0.1,-6,-9,0.0,x,0.64,x,2.0,i
CCOC(=O)C1CCN(C(=O)Nc2ccc(NC(=O)C3CCN(C(=O)OCC)CC3)cc2)CC1,-16,-2.1,x,x,x,0.7,0.62,1,x,x

# 2 entries from above, with values under each structure:
# The line under a structure holds: T cruzi inh | UCH37 inh | Ecoli rRNA inh | Ecoli rRNA inh OD600 | Ecoli rRNA inh RFP | A1 inh | Ecoli growth | Beta apoptosis | AF4-AF9 inh | FGF22 binding
- Cc1ccn2c(=O)c(C(=O)O)cnc2c1
  -14 | -306 | x | x | x | 0.8 | 0.71 | -6 | -5.0 | i
- CC(/C=N/NC(=O)c1cccs1)=C\c1ccco1
  -18 | x | 13 | 12 | -2.0 | -5.0 | x | 3 | 6.9 | i

# Not all compounds are listed. The share of hits here may be higher or lower than overall.
